High-throughput results from PubChem.
STK33 kinase inh: human STK33 kinase inhibition; Q9BYT3; purified STK33, MBP phosphorylation, ADP-Glo luminescence; inhibition, % at 10 µM; hit rate 0.073% among 320,000; AID 2661;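 active means inhibition at or above 25%, using the most active replicate where run in duplicate; inactive means inhibition below 25%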
Target sequence (Q9BYT3 whole entry, looked up): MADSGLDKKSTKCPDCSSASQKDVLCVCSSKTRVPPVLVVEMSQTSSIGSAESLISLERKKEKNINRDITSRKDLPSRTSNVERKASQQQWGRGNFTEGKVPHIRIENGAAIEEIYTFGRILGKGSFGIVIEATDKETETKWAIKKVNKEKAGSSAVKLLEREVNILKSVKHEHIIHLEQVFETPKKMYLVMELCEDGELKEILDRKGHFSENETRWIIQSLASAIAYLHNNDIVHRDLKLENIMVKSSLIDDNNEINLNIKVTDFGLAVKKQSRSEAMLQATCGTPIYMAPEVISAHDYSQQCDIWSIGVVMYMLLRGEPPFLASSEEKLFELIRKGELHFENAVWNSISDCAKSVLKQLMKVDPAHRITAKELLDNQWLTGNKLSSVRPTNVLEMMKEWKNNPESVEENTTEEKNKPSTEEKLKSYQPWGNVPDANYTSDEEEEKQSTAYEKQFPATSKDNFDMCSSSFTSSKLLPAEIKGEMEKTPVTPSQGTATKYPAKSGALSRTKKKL
An asterisk follows results filed as active.

`COC(=O)c1nc2cc3c(cc2c(C)c1C(=O)OC)OCO3` gave STK33 kinase inh 0.3.
Screening CCCCCC(=O)N/N=C(\C)c1ccccn1 returned STK33 kinase inh 1.3.
`COc1ccc(C2=Nn3c(nnc3-c3ccccn3)SC2)cc1OC` gave STK33 kinase inh -1.9.
Screening O=C(Nc1ccccc1)Nc1ccc(C(=O)N2CCCC2)cc1 returned STK33 kinase inh 2.5.
For C=CCN1C(=O)C(C)(C)Nc2ccccc21 the results were STK33 kinase inh 0.2.
Cc1cc(C(=O)OCC(=O)Nc2ccc(F)c(F)c2)c(C)o1 was read as STK33 kinase inh 0.5.
`CC(C)c1ccc(N(C(=O)CNC(=O)c2ccco2)C(C(=O)NC2CCCC2)c2ccncc2)cc1` (configuration not stated) gave STK33 kinase inh -0.2.
`CC(=O)Nc1ccc(NC(=O)CSc2nnc(-c3cc(C)[nH]n3)n2N)cc1` gave STK33 kinase inh -0.6.
For Nc1c2c(nc3ccccc13)CSCC2 the results were STK33 kinase inh -0.5.
CC(C)N(C(=O)COC(=O)c1ccccc1C(=O)c1ccc(Cl)c([N+](=O)[O-])c1)C(C)C was read as STK33 kinase inh -1.0.
N#CC1=C(N)N2C(=C(C#N)C1c1ccc(Br)cc1)Nc1ccccc12 (configuration not stated) was read as STK33 kinase inh -0.6.
Screening CCN1CCN(CCNC(=O)c2ccc(CS(=O)c3ccc(Br)cc3)o2)CC1 (configuration not stated) returned STK33 kinase inh -1.3.
C/C(CCc1ccccc1)=N\NC(=O)c1ccccc1[N+](=O)[O-] was read as STK33 kinase inh -0.2.
`CC(Sc1ccccc1)C(=O)Nc1ccc(N2CCOCC2)cc1` (configuration not stated) gave STK33 kinase inh -1.8.
CCOC(=O)CSc1nnc(CSc2nc(C)cc(C)n2)n1Cc1ccco1 was read as STK33 kinase inh 0.7.
`Cc1cccc(NC(=O)CSCC(=O)OCc2ccccn2)c1` gave STK33 kinase inh -2.9.
Screening O=C(N/N=C\c1cccnc1)c1ccccc1O returned STK33 kinase inh 0.1.
O=C(OCc1nnc(-c2ccccc2)o1)C1=COCCO1 was read as STK33 kinase inh 0.5.
OCCNCc1ccc(-c2ccccc2)cc1 was read as STK33 kinase inh 0.6.
CCc1ccc2[nH]c(=O)c(-c3ccccc3)c(O)c2c1 was read as STK33 kinase inh -23.2.
Screening COc1ccc(Nc2nc(N)nc(CN3CCC(C)CC3)n2)cc1 returned STK33 kinase inh -0.5.
`COc1ccc(NC(=S)NC2CCCCCC2)c(OC)c1` gave STK33 kinase inh -0.2.
Screening O=C(Nc1nnc(-c2ccco2)o1)C1CC1 returned STK33 kinase inh -1.1.
`c1ccc2c(c1)sc1nnnn12` gave STK33 kinase inh -0.9.
Screening COC(=O)c1cc(OC)c(OC)cc1NC(=O)c1c(-c2ccccc2Cl)noc1C returned STK33 kinase inh 0.4.
For O=[N+]([O-])c1cccc(/C=N\N2CCN(Cc3ccccc3Cl)CC2)c1 the results were STK33 kinase inh -0.4.
COc1cc(C2NC(=O)CCC2[N+](=O)[O-])c(OC)cc1Br (configuration not stated) was read as STK33 kinase inh -0.1.
Screening COc1ccc(Nc2ncnc3ccc([N+](=O)[O-])cc23)c(OC)c1 returned STK33 kinase inh 0.2.
`COc1ccc(Cl)c(Cn2c(NCCCN(C)C)nc3c2c(=O)n(C)c(=O)n3C)c1` gave STK33 kinase inh -0.6.
Screening CS(=O)(=O)N1CCC(C(=O)Nc2cccc(Br)c2)CC1 returned STK33 kinase inh -1.2.
`CCOC(=O)c1c(NC(=S)Nc2ccccc2)sc2c1CCN(C)C2` gave STK33 kinase inh -0.7.
Screening COc1ccc(C(=O)C2CCN(CC(=O)Nc3ccccc3F)CC2)cc1 returned STK33 kinase inh -0.6.
Screening COCC(C)n1c(C)cc(C(=O)COC(=O)CNC(=O)c2ccccc2)c1C (configuration not stated) returned STK33 kinase inh -0.3.
CC(=O)C1=C(O)C(=O)N(C)C1c1ccccc1F (configuration not stated) was read as STK33 kinase inh -1.9.
Screening CCCn1cnc2sc(C(N)=O)c(C)c2c1=O returned STK33 kinase inh -0.5.
COc1ccc(CCN2C(=O)CC(NNc3ccc([N+](=O)[O-])cc3)C2=O)cc1OC (configuration not stated) was read as STK33 kinase inh 1.0.
Cc1cccc(-c2nc(=S)c3c(o2)CCCC3)c1 was read as STK33 kinase inh -0.6.
CSc1ccccc1OCc1cc(C(=O)N2CCC(c3ccncc3)CC2)no1 was read as STK33 kinase inh -0.5.
CN(C)/C=C/C1=C([N+](=O)[O-])C(c2cccc([N+](=O)[O-])c2)NC(=O)N1 (configuration not stated) was read as STK33 kinase inh -1.1.
Screening Cc1ccc(S(=O)(=O)NCc2ccco2)c(C)c1C returned STK33 kinase inh -0.5.
`O=[N+]([O-])c1ccc(/C=N/NC(=S)Nc2ccc(Cl)cc2Cl)s1` gave STK33 kinase inh -2.7.
O=C(O)c1ccccc1SCC(=O)N1CCCCC1 was read as STK33 kinase inh 0.1.
For COc1cccc(CN2C(=O)c3cccc(N)c3C2=O)c1 the results were STK33 kinase inh -0.1.
Screening O=C(Nc1ccc(Br)cc1)c1ccccc1Br returned STK33 kinase inh -0.3.
Screening O=[N+]([O-])c1ccc(Oc2ccc(-c3nnco3)cc2)c(Cl)c1 returned STK33 kinase inh -0.6.
For Cc1cc(C(=O)CS(=O)(=O)c2ccc(F)cc2)cc(C)c1O the results were STK33 kinase inh -0.2.
For Cc1ccc(CNC(=O)C2CCC(=O)N2Cc2ccccc2Cl)cc1 (configuration not stated) the results were STK33 kinase inh 0.1.
For CCCNC(=O)COC(=O)c1ccccc1OCC(=O)Nc1ccc(Br)cc1 the results were STK33 kinase inh 0.1.

Of the compounds above, 3 have two or more sulfur atoms.
CCOC(=O)CSc1nnc(CSc2nc(C)cc(C)n2)n1Cc1ccco1 was read as STK33 kinase inh 0.7.
`CCOC(=O)c1c(NC(=S)Nc2ccccc2)sc2c1CCN(C)C2` gave STK33 kinase inh -0.7.
`O=[N+]([O-])c1ccc(/C=N/NC(=S)Nc2ccc(Cl)cc2Cl)s1` gave STK33 kinase inh -2.7.

(further entries)
For CC1=CC(C)(C)N=C(Nc2ccc(C)cc2)S1 the results were STK33 kinase inh -0.7.
O=C(c1ccc([N+](=O)[O-])cc1)N(Cc1ccccc1)c1ccccn1 was read as STK33 kinase inh 2.4.
Screening COc1cccc(C(=O)CSc2nnc(-c3cc(OC)c(OC)c(OC)c3)o2)c1 returned STK33 kinase inh -0.3.
`Cc1ccc(CN(c2ccc(C(=O)Nc3ccc4c(c3)OCO4)cc2)S(C)(=O)=O)cc1` gave STK33 kinase inh -1.6.
For CCCCOc1ccc(NC(=O)C2CC=CCC2C(=O)O)cc1 (configuration not stated) the results were STK33 kinase inh -1.0.
COCCNC(=O)CN(C(=O)CCC(=O)Nc1ccccn1)c1ccc(F)c(Cl)c1 was read as STK33 kinase inh 0.0.
For NC(=O)CSc1nc2ccccc2c(=O)n1CCc1ccccc1 the results were STK33 kinase inh -1.6.
Screening Cc1c(O)c2c(=O)n(-c3ccccc3)c(-c3ccccc3)cc2oc1=O returned STK33 kinase inh -0.4.
Screening CC(C)C(NC(=O)c1ccccc1F)C(=O)NCc1ccc(F)cc1 (configuration not stated) returned STK33 kinase inh -2.1.
For O=C1OC(/C=C/c2ccc(Cl)cc2Cl)=NC/1=C\c1cccs1 the results were STK33 kinase inh -0.2.
For CC1CCCCN1CC(=O)c1c[nH]c2ccccc12 (configuration not stated) the results were STK33 kinase inh 0.6.
`Cc1cc(C(=O)CN2CC(C)OC(C)C2)c(C)n1-c1ccccc1` (configuration not stated) gave STK33 kinase inh -0.9.
Screening COc1ccc(C2/C(=C(\O)c3cccc(OC)c3)C(=O)C(=O)N2c2ccccn2)cc1 (configuration not stated) returned STK33 kinase inh -0.2.
For CCc1ccc(C(C)NC(=O)c2ccncc2)cc1 (configuration not stated) the results were STK33 kinase inh 0.2.
COc1cnc(SCc2ccc(Cl)cc2)nc1Cl was read as STK33 kinase inh 0.5.
Cc1cc(S(=O)(=O)N2CCN(c3ccc(F)cc3)CC2)ccc1-n1cnnn1 was read as STK33 kinase inh -1.7.
COC(=O)c1cc(=O)n(CCc2ccc(OC)c(OC)c2)c(=Nc2ccc(F)c(Cl)c2)s1 was read as STK33 kinase inh -1.2.
For CC1CCCCN1S(=O)(=O)c1ccc2c(c1)CCN2C(=O)CCC(=O)O (configuration not stated) the results were STK33 kinase inh 0.3.
Screening CC1=C(C(=O)OCc2ccccc2)C(c2ccccc2[N+](=O)[O-])NC(=O)N1C (configuration not stated) returned STK33 kinase inh 0.2.
Screening CSc1nc(-c2ccc(Cl)cc2)nn1C(=O)c1ccccc1 returned STK33 kinase inh -0.7.
Screening CC1CC(C)CN(C(=O)CN2CCN(Cc3ccc(Cl)cc3)C2=O)C1 (configuration not stated) returned STK33 kinase inh -0.9.
For CCNc1ccc(S(=O)(=O)N(C)C)cc1[N+](=O)[O-] the results were STK33 kinase inh -1.3.
Cc1ccc(Nc2nc(N)c([N+](=O)[O-])c(NCc3ccco3)n2)cc1 was read as STK33 kinase inh 3.1.
For C/C(CC(=O)NC12CC3CC(CC(C3)C1)C2)=N\NC(=O)c1cnccn1 the results were STK33 kinase inh -0.2.
`CCc1cccc(C)c1NC(=O)CC1Oc2ccc(C)cc2NC1=O` (configuration not stated) gave STK33 kinase inh -0.4.
Screening Cc1cccc(NC(=S)N2CCN(C(=O)c3ccco3)CC2)c1 returned STK33 kinase inh 12.7.
`CCCCc1ccc(NC(=S)Nc2ccc(Nc3ccc(OC)cc3)cc2)cc1` gave STK33 kinase inh -0.9.
CCn1cc(NC(=O)Nc2ccccc2C(=O)OC)c(C(N)=O)n1 was read as STK33 kinase inh -0.7.
`CC1=CC(=O)C(C(C)C)=C/C1=N\OC(=O)c1cccc2nc(C)oc12` gave STK33 kinase inh -0.9.
For Cn1nccc1C(=O)N1CCN(c2cccc(C(F)(F)F)c2)CC1 the results were STK33 kinase inh -1.1.
`O=C(NCCOc1ccc2ccccc2c1)c1cncc(Br)c1` gave STK33 kinase inh -1.6.
CC(SCCc1ccccn1)C(=O)O (configuration not stated) was read as STK33 kinase inh -1.5.
COc1ccc2[nH]c(=O)c(CN(C(=O)C3CCCO3)c3ccc(C)cc3)cc2c1 (configuration not stated) was read as STK33 kinase inh -0.8.
Cc1cnc(NC(=O)c2ccc3c(c2)C(=O)N(Cc2cccnc2)C3=O)s1 was read as STK33 kinase inh -0.5.
CCOC(=O)c1c(NC(=O)CCN2CCOCC2)sc(C)c1-c1ccccc1 was read as STK33 kinase inh -0.2.
CC(=O)Oc1c(C(=O)c2nnc(C)o2)c(=O)n(Cc2ccccc2)c2ccccc12 was read as STK33 kinase inh 0.3.

Ten structures from above, arranged by heavy-atom count, low to high:
CC(SCCc1ccccn1)C(=O)O (configuration not stated) was read as STK33 kinase inh -1.5.
For CCNc1ccc(S(=O)(=O)N(C)C)cc1[N+](=O)[O-] the results were STK33 kinase inh -1.3.
Screening Cc1cccc(NC(=S)N2CCN(C(=O)c3ccco3)CC2)c1 returned STK33 kinase inh 12.7.
For Cn1nccc1C(=O)N1CCN(c2cccc(C(F)(F)F)c2)CC1 the results were STK33 kinase inh -1.1.
`CCc1cccc(C)c1NC(=O)CC1Oc2ccc(C)cc2NC1=O` (configuration not stated) gave STK33 kinase inh -0.4.
For C/C(CC(=O)NC12CC3CC(CC(C3)C1)C2)=N\NC(=O)c1cnccn1 the results were STK33 kinase inh -0.2.
Cc1cnc(NC(=O)c2ccc3c(c2)C(=O)N(Cc2cccnc2)C3=O)s1 was read as STK33 kinase inh -0.5.
CCOC(=O)c1c(NC(=O)CCN2CCOCC2)sc(C)c1-c1ccccc1 was read as STK33 kinase inh -0.2.
`CCCCc1ccc(NC(=S)Nc2ccc(Nc3ccc(OC)cc3)cc2)cc1` gave STK33 kinase inh -0.9.
CC(=O)Oc1c(C(=O)c2nnc(C)o2)c(=O)n(Cc2ccccc2)c2ccccc12 was read as STK33 kinase inh 0.3.

(continued)
For Cc1ccc(CNC(=O)CCCCCNC(=O)N2CCn3c2nc2ccccc23)cc1 the results were STK33 kinase inh 1.2.
`CC(C)(C)NCC(O)COc1ccccc1C(=O)CCc1ccccc1` (configuration not stated) gave STK33 kinase inh -0.3.
`Cc1ccnc(N2C(=O)CSC2c2ccc(Cl)cc2)c1` (configuration not stated) gave STK33 kinase inh -1.1.
O=C1CCN(Cc2ccc([N+](=O)[O-])cc2)CCN1CCO was read as STK33 kinase inh -1.6.
Screening Fc1ccc(CNc2nc(-c3ccco3)cc(C(F)(F)F)n2)cc1 returned STK33 kinase inh -1.6.
CCCCN(C(=O)C1CCCO1)c1c(N)n(CC(C)C)c(=O)[nH]c1=O (configuration not stated) was read as STK33 kinase inh -0.9.
`O=C(NCc1ccccc1)C1CCC(CNc2c(N3CCCCC3)c(=O)c2=O)CC1` (configuration not stated) gave STK33 kinase inh 0.3.
CC1CCCCN1C(=O)c1cc(S(=O)(=O)N2CCCCC2)c[nH]1 (configuration not stated) was read as STK33 kinase inh -0.7.
For NC(=O)c1cc(S(=O)(=O)NCCCc2ccccc2)cs1 the results were STK33 kinase inh 0.5.
Screening CCOc1ccc(NC(=O)c2sc(N3CCOCC3)nc2-c2ccccc2)cc1 returned STK33 kinase inh 0.5.
CC(=O)Nc1ccccc1Sc1ccc2c3c(cccc13)C(=O)N(c1ccc(C)cc1)C2=O was read as STK33 kinase inh -1.0.
`Cc1ccc2nc(-c3ccccc3NC(=O)CCC(=O)O)c(=O)[nH]c2c1` gave STK33 kinase inh -0.2.
For CCOc1ccc(-c2nnn(CC(=O)NCc3ccc(OC)cc3)n2)cc1OCC the results were STK33 kinase inh -2.0.
For CCOC(=O)CSc1[nH]c(=O)cc(C)c1C#N the results were STK33 kinase inh -0.8.
Screening O=C(CSc1nnc(CN2CCOCC2)n1-c1ccccc1)N1CCc2ccccc21 returned STK33 kinase inh -0.8.
CCOc1ccc(N(CC(=O)NC2CCCCC2)C(=O)CCC(=O)Nc2nccs2)cc1 was read as STK33 kinase inh -1.3.
Screening Cc1ccc2c(c1)C1CN(C)CCC1N2C(=O)COc1ccc(N(C)S(=O)(=O)c2cccs2)cc1 (configuration not stated) returned STK33 kinase inh 0.7.
`Cc1cc(C)n2nc(-c3cccc(Br)c3)cc2n1` gave STK33 kinase inh -0.6.
`Cc1cc(C)c(S(=O)(=O)Nc2ccc(OCC(=O)O)cc2)c(C)c1` gave STK33 kinase inh -0.9.

This is a subset, and most or all hits are left out here.
